From PubChem BioAssay
Polio RdRp inh: inhibitors of poliovirus RNA polymerase binding and polymerization; P03300; poliovirus polymerase elongation, fluorescence polarization; hits give low values; % elongation, % (compound at 16.7 µg/mL); actives 0.66% (n = 150,000); in the data active = % elongation below about 90%; note: some results filed as inactive read as strong as hits
Target sequence (P03300 1749-2209 limits assumed): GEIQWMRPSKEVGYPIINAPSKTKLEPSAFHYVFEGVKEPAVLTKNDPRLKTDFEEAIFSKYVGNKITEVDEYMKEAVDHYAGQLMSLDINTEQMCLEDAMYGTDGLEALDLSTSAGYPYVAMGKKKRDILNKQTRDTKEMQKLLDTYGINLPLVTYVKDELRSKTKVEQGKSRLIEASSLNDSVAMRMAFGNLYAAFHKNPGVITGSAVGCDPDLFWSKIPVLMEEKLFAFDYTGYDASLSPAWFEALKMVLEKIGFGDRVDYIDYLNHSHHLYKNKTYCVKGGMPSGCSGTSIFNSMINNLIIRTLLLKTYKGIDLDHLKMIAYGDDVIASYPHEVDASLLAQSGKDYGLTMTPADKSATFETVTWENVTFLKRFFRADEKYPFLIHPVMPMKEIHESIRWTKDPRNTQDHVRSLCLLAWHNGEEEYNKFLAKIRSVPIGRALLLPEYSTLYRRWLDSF
Polio RdRp inh intensity: second read-out of Polio RdRp inh, no call of its own (marks repeat the call); % elongation; measured here: total intensity read-out; formula for this scale not given here;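 total fluorescence in place of polarization; lower means less elongation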
Numbers without * were called inactive.

Preview, two compounds:
SMILES	Polio RdRp inh	Polio RdRp inh intensity
CCOc1ccccc1N1CC(c2nc3ccccc3n2CCOc2ccccc2)CC1=O (stereo not given)	109	110
Cc1ccc(NC(=O)Cc2coc3c(C)c(C)ccc23)cc1Cl	113	109

The listing, from the first entry:
SMILES	Polio RdRp inh	Polio RdRp inh intensity
CCOc1ccccc1N1CC(c2nc3ccccc3n2CCOc2ccccc2)CC1=O (stereo not given)	109	110
Cc1ccc(NC(=O)Cc2coc3c(C)c(C)ccc23)cc1Cl	113	109
CCN(CC)C(=O)c1cnn(-c2ccc(F)cc2)c1-n1cccc1	111	116
O=C1CC(c2ccccc2)Cc2[nH]c(=O)c(-c3nc(-c4cccc(Cl)c4)cs3)cc21 (stereo not given)	110	118
COC(=O)c1c(NC(=O)CCCOc2ccc(C(C)(C)C)cc2)sc2c1C(C(=O)OC)CC2 (stereo not given)	62*	66*
CSc1nn(Cc2ccc(C)cc2)c(N)c1S(=O)(=O)c1ccccc1	105	112
COc1ccc(NC(=O)c2cc3ccccc3o2)c(OC)c1	105	115
COc1ccc(OC)c(NC(=O)c2ccc3c(c2)c(C)c(C)n3Cc2ccc(F)cc2)c1	103	98
Cc1ccc(N(C)C(=O)Cn2nc(Cc3ccncc3)c3ccccc3c2=O)cc1C	107	109
Cn1c(NCCO)nc2c1c(=O)n(Cc1ccccc1Cl)c(=O)n2C	109	109
Cc1cc(C(=O)N2CCN(c3ccccc3)CC2)c2c(C)nn(-c3cccc(F)c3)c2n1	113	109
CCCC(=O)Nc1c(C(=O)N2CCN(c3ccccc3)CC2)oc2ccccc12	103	107

Part of the list above in order of molecular weight, lowest first.
SMILES	Polio RdRp inh	Polio RdRp inh intensity
COc1ccc(NC(=O)c2cc3ccccc3o2)c(OC)c1	105	115
CCN(CC)C(=O)c1cnn(-c2ccc(F)cc2)c1-n1cccc1	111	116
Cc1ccc(NC(=O)Cc2coc3c(C)c(C)ccc23)cc1Cl	113	109
Cn1c(NCCO)nc2c1c(=O)n(Cc1ccccc1Cl)c(=O)n2C	109	109
Cc1cc(C(=O)N2CCN(c3ccccc3)CC2)c2c(C)nn(-c3cccc(F)c3)c2n1	113	109
COc1ccc(OC)c(NC(=O)c2ccc3c(c2)c(C)c(C)n3Cc2ccc(F)cc2)c1	103	98
O=C1CC(c2ccccc2)Cc2[nH]c(=O)c(-c3nc(-c4cccc(Cl)c4)cs3)cc21 (stereo not given)	110	118

Going on with the list.
SMILES	Polio RdRp inh	Polio RdRp inh intensity
CCOC(=O)c1c(C)[nH]c(C)c1S(=O)(=O)N1CCC(C(=O)N2CCN(c3ccc(Cl)cc3)CC2)CC1	107	112
CN(C)S(=O)(=O)N(CC(=O)NCCSCc1ccc(Cl)cc1Cl)c1ccccc1	105	103
CS(=O)(=O)CCC(C(=O)Nc1cccc(C(F)(F)F)c1)N1Cc2ccccc2C1=O (stereo not given)	106	106
COc1ccc(CCC(=O)NCc2nc3cccnc3n2Cc2ccc(C)cc2)cc1	108	114
N#CC1=C(N)N(c2ccc(Cl)cc2)C2=C(C(=O)CCC2)C1c1cc(CN2CCOCC2)cs1 (stereo not given)	109	114
Cc1ccc(CNS(=O)(=O)c2c(C(=O)N3CCC(C)CC3)c(C)n(C)c2C)cc1	112	114
CCOc1ccccc1Nc1cc(-c2ccccc2)nc(C)n1	112	115
Fc1ccc(N2CCN(c3nc4ccccc4c4nc(-c5ccccc5)nn34)CC2)cc1	107	110
Cc1ccc(CSCC(=O)NCc2ccc(F)cc2)cc1	104	104
Cc1ccc(NS(=O)(=O)c2ccc3c4c(cccc24)C(=O)N3)c(C)c1	103	109
Fc1ccc(N2CCN(Cc3cccn3-c3nnc(N4CCN(C5CCCCC5)CC4)s3)CC2)cc1	111	104
Cc1ccc(-c2nc3nc(C)cc(N4CCN(c5cccc(C)c5)C(C)C4)n3n2)cc1 (stereo not given)	109	109
CCOc1ccc(-c2cc(C(=O)Nc3ccc(NC(C)=O)cc3)no2)cc1	111	111
CSCCC(NS(=O)(=O)c1ccc2c(c1)oc(=O)n2C)C(=O)Nc1ccc(F)c(Cl)c1 (stereo not given)	103	109
CCc1cccc(-n2c(C)nc3c(cnn3-c3ccc(C)c(C)c3)c2=O)c1	107	108
Cc1ccc(C)c(N2CCN(C(=O)C(C)n3nc(C)c4sc5ccccc5c4c3=O)CC2)c1 (stereo not given)	109	106
CC(C)c1cccc(OCCn2c(-c3ccc(Cl)cc3)nc3ccccc3c2=O)c1	97	102
O=c1[nH]c2cc(Br)ccc2n2cccc12	111	112
O=C(CSc1nccn1-c1cccc(Cl)c1)Nc1cccc2ccccc12	109	108
COc1ccc(-n2nc3cc(C)c(NC(=O)c4ccc(C)cc4C)cc3n2)cc1Cl	108	109
CC(C)CCn1c(/C=C/c2ccccc2)nc2ccccc21	104	105
COc1ccc2oc(-c3cccc(NC(=O)c4cc([N+](=O)[O-])ccc4N4CCOCC4)c3)nc2c1	108	108
CCc1ccc(S(=O)(=O)c2nnn3c2nc(NCc2ccccc2)c2cc(Cl)ccc23)cc1	104	107
CSc1cccc(NC(=O)C2CCN(S(=O)(=O)c3ccc4[nH]c5c(c4c3)CCCCC5)CC2)c1	107	112

Profiles, quoted from the list. Screens in order: Polio RdRp inh, Polio RdRp inh intensity
Profile of COc1ccc2oc(-c3cccc(NC(=O)c4cc([N+](=O)[O-])ccc4N4CCOCC4)c3)nc2c1 → 108, 108
Profile of CSCCC(NS(=O)(=O)c1ccc2c(c1)oc(=O)n2C)C(=O)Nc1ccc(F)c(Cl)c1 (stereo not given) → 103, 109
Profile of O=c1[nH]c2cc(Br)ccc2n2cccc12 → 111, 112

Next section:
SMILES	Polio RdRp inh	Polio RdRp inh intensity
Cc1ccc(C)c(N2CCN(c3ccc4cc(S(=O)(=O)N5CCC(C)CC5)ccc4n3)CC2)c1	111	109
O=C(Nc1cc2c(cc1C(=O)c1ccccc1Br)OCCO2)c1ccccc1	104	109
Cc1ccc(CNC(=O)C2CCN(C(=O)N3CC(C)Oc4ccc(Cl)cc43)CC2)cc1 (stereo not given)	111	109
Cc1ccccc1NC(=O)Cn1c(=O)oc2cc(Br)ccc21	102	93
CCOc1cccc2cc(S(=O)(=O)c3ccccc3F)c(=O)oc12	104	107
Cc1ccc2oc(C(=O)Nc3c(C(=O)Nc4ccccc4)oc4ccccc34)cc(=O)c2c1	104	106
Cc1cc(C)c(NC(=O)Cn2c(=O)n(-c3cccc(C(F)(F)F)c3)c(=O)c3c(C)c(C)sc32)c(C)c1	108	107
COc1ccc(Nc2oc(-c3ccc(COc4ccccc4)o3)nc2C#N)cc1	113	108
CC(=O)c1cccc(NC(=O)CCc2c(C)nc3c(c(C)nn3-c3ccccc3)c2C)c1	107	111
CCOc1ccccc1NC(=O)CCc1c(C)nc2c(c(C)nn2-c2ccccc2)c1C	109	110
COC(=O)c1ccc(Cn2cnc3nc4c(cc3c2=O)CCCC4)cc1	116	112
NC(=O)c1c(NC(=O)CS(=O)(=O)c2ccc(Cl)cc2)sc2c1CCCCC2	100	101
CN(C)S(=O)(=O)c1ccc2c(c1)N(CC(=O)NCc1ccccc1)C(=O)C1CCCCN21 (stereo not given)	107	113
COc1ccc(CCNC(=O)C(=O)NCC(c2cccs2)S(=O)(=O)c2ccc(C)cc2)cc1 (stereo not given)	112	114
COc1ccc(OC)c(-c2nc(Nc3ccccc3C)sc2CC(=O)O)c1	104	104
O=C(NCCCc1nc2ccccc2n1Cc1c(F)cccc1Cl)C1CCCCC1	110	114
O=S(=O)(NCc1ccc(Cl)cc1)c1ccc2[nH]c3c(c2c1)CCCC3	102	95
CCn1c(SCc2ccc(F)cc2Cl)nc(=O)c2c(C(=O)OC)cc(C3CC3)nc21	107	112
COc1ccc(C(=O)NC2(C(F)(F)F)C(=O)NC(C)=C2C#N)cc1OC (stereo not given)	106	106
Cc1ccc(NC(=O)c2c(NC(=O)Cc3ccccc3)sc3c2CCCC3)cc1	101	102
O=C(OCc1cc(=O)n2nc(-c3cccs3)sc2n1)c1ccc(F)cc1	107	113
CC(C)(C)c1ccc(C(=O)Nc2sc3c(c2C#N)CCC(C(C)(C)C)C3)cc1 (stereo not given)	99	102
CCOC(=O)c1cccc(NC(=O)CCc2c(C)nn(-c3ccc(N4CCCCC4)nn3)c2C)c1	98	105
COc1cc(OC)cc(C(=O)Nc2ccc3oc(-c4ccc(Cl)cc4)nc3c2)c1	105	107
COc1cccc(NC(=O)c2cc3c(=O)n(C)c4ccccc4c3n2C)c1	107	111
Cc1nnc(SCc2ccccc2Cl)c2cc3sccc3n12	101	97
CCN1CCN(c2cc(C)c3cc(NC(=O)/C=C/c4ccc(C)cc4)ccc3n2)CC1	108	108
CCc1ccc(S(=O)(=O)Nc2cccc(-c3ccc(N4CCOCC4)nn3)c2)cc1	108	95
CN1CCN(C(CNC(=O)C(=O)Nc2ccc(F)cc2F)c2ccc3c(c2)OCO3)CC1 (stereo not given)	106	105
Cc1ccc(NC(=O)CN(C)S(=O)(=O)c2ccc3c(c2)CCC(=O)N3)c(C)c1	107	109
CCOc1ccc(N(CC(=O)OC)S(=O)(=O)c2ccc3c(c2)n(C)c(=O)c(=O)n3C)cc1	107	112
CCc1nn(CC(=O)NCCCc2ccccc2)c(=O)c2cc3ccccc3n12	109	118
Cc1ccc(OCCSc2nc3ccc(NC(=O)c4ccc5c(c4)OCO5)cc3s2)cc1	106	105
O=C(COc1ccccc1)Nc1ccc2nc(SCC(=O)N3CCCC3)sc2c1	107	111
Cc1ccc(NC(c2nnc(-c3ccccc3)o2)c2ccccc2F)c([N+](=O)[O-])c1 (stereo not given)	106	100
COC(=O)c1c(SC)nc2ccccc2c1OCc1ccc(C)cc1C	113	117
CC(C)c1nn2c(=O)cc(COC(=O)CNC(=O)c3ccccc3)nc2s1	104	97
COc1ccccc1CCN1COc2c(cc3c(C)c(C)c(=O)oc3c2C)C1	107	94
O=C(CCc1cn(Cc2ccc(F)cc2)c2ccccc12)NC1CCCCC1	105	114
COc1cc2cc(CNc3ccccc3)c(=O)n(CC(=O)Nc3ccccc3)c2cc1OC	90	133
CC(C)c1ccccc1Oc1c(C(F)(F)F)oc2c(CN3CCN(C)CC3)c(O)ccc2c1=O	100	103
Cc1noc2nc(C(=O)O)nc(N3CCCCC3)c12	105	102
O=c1[nH]c2ccc(S(=O)(=O)Nc3cc(Cl)ccc3O)cc2o1	104	109
O=C(COCc1cc(-c2ccco2)on1)Nc1ccc(OC(F)(F)F)cc1	103	104
CCc1ccccc1N(C)C(=O)Cn1cnc2sc(C)c(S(=O)(=O)N3CCN(c4ncccn4)CC3)c2c1=O	109	112
CCOc1ccc(S(=O)(=O)Nc2cc(Cl)ccc2OC)c2cccnc12	103	103
COc1ccc(Cl)cc1NC(=O)C1CCN(S(=O)(=O)c2ccc3c(c2)CCCN3C(=O)C2CCC2)CC1	109	106
CCOc1ccc(CCNC(=O)c2cc(=O)[nH]c3ccc(S(=O)(=O)N4CCCCC4C)cc23)cc1OCC (stereo not given)	114	111
Cc1ccc(S(=O)(=O)NCC(c2ccc(N(C)C)cc2)N2CCc3ccccc32)cc1C (stereo not given)	104	91
COc1ccc(Cl)cc1NC(=O)CSc1nnc2[nH]c(=O)cc(C)n12	111	110
COc1ccc(-n2c(=O)c3sc4ccccc4c3n(Cc3ccccc3)c2=O)cc1	106	110
COC(=O)c1ccc(NC(=O)C(=O)NCCc2sc3nc(-c4ccc(OC)cc4)nn3c2C)cc1	107	108
COc1ccc(-c2cc(-c3ccc4c(c3)NC(=O)CO4)nc3c2COc2ccc(F)cc2-3)cc1	107	107
Cc1ccc(NC(=O)Cn2c(=O)n(Cc3ccco3)c(=O)c3ccccc32)cc1	103	108
CCN(Cc1ccccc1)Cc1c(O)ccc2c(=O)c(-c3ccc(Cl)cc3)coc12	102	102
COC(=O)c1ccc(NC(=O)CSc2cn(CC(=O)N3CCCCC3)c3ccccc23)cc1	124	125
CCOC(=O)c1cc(-c2ccc(F)cc2)n(CCC(=O)Nc2nc3ccc(OC)cc3s2)c1C	103	99
CCC(=O)Nc1c(C(=O)N2CCN(c3ccc(F)cc3)CC2)oc2ccccc12	97	100
O=C(Cn1cc(S(=O)(=O)N2CCCC2)c(S(=O)(=O)N2CCCC2)c1)Nc1ccc(F)cc1	108	111
O=C1CSC2(C(=O)N(Cc3ccccc3)c3ccccc32)N1c1ccc(Cl)cc1 (stereo not given)	104	108

The list continues.
SMILES	Polio RdRp inh	Polio RdRp inh intensity
CCCN(CCC)CCCNC(=O)Cn1ncc2c3ccccc3n(Cc3ccc(F)cc3)c2c1=O	107	107
COCCn1c(C)cc(O)c(C(c2ccc(F)cc2)N2CCN(c3ccccc3)CC2)c1=O (stereo not given)	112	119
O=C(NCC(c1ccc2c(c1)OCO2)N1CCOCC1)C(=O)Nc1ccc(Cl)cc1 (stereo not given)	101	103
CCCNC(=O)CSc1cn(CC(=O)N2CCCCCC2)c2ccccc12	112	115
COc1ccc(C2=NS(=O)(=O)N(C)C(C(=O)NCc3ccccc3)=C2)cc1OC	108	103
CCOc1ccc(OCC)c(NC(=O)CCc2c(C)nc3c(c2C)c(=O)n(C)c(=O)n3C)c1	105	108
COc1ccc(CCn2c(=O)c3cccnc3n(CC(=O)Nc3c(C)cccc3C)c2=O)cc1OC	105	112

Some of the compounds tested. The share of hits here may be higher or lower than overall.
